GALR2 ag = GALR2 receptor agonists, primary screen, cell-based; Galanin receptor type 2 (Homo sapiens), O43603; GALR2-expressing cells, agonist activation read-out; activation, %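 (tested at 5 µM)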; 0.48% of 140,000 active;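 active = above mean plus 3 SD of all compounds, about 5% in these data, not always enough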;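 also: 0% = vehicle buffer wells and 100% = reference agonist at full effect; tested in CHO reporter cells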
Insulin prom inh = inhibitors of insulin promoter-driven GFP, primary screen, imaging, TRM-6 cells (human fetal islet line), eGFP reporter, cell count; reporter expression induced with tamoxifen; inhibition, % at 2 µM; 0.9% of 130,000 active;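 active = inhibition above the mean plus 3 SD, with well images judged a real hit on visual review, cut at about 60% in these data, passing the limit was not always enough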
HSV augment = enhancers of HSV replication in host cells, fold increase, host cell viability; AID 1956, 2009; maximum fold increase; 0.005% of 220,000 active; HSV replication augmentation in cells;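 active = peak rise of 1.5-fold or more in the series; tested in PC3 cells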;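 also: first round at 10 µM; read as green reporter fluorescence; hits show the peak of a series up to 25 µM; 1 = signal of infected wells without compound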
RGS16-Gao HTS = modulators of RGS16 binding to Galphao, primary screen, biochemical, human proteins, multiplexed bead flow cytometry. binding response (% of control), % at 10 µM. 0.38% of 220,000 active. AID 1441, 2008. Regulator of G-protein signaling 16 (Homo sapiens) + Guanine nucleotide-binding protein …. bead-based flow cytometry RGS16-Galphao binding, fluorescence; actives lie on both sides;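 active = below 25% or above 175%, edge rows of some plates excepted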;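 also: Galphao activated by GDP with aluminum fluoride before binding; 100% = wells without compound and 0% = beads without RGS; some results beyond the cut were filed as inactive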
PKD1 inh = inhibitors of human PKD1 kinase, biochemical, fluorescence polarization. Serine/threonine-protein kinase D1 (Homo sapiens), Q15139. PKD1 kinase fluorescence polarization assay. inhibition, %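 (about 10 µM by stock and volumes)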. 0.056% of 200,000 active. AID 797, 2007;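 active = inhibition of 50% or more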;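 also: controls were vehicle for no effect and a reference inhibitor for full effect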
Target sequence (Q15139 whole entry, looked up): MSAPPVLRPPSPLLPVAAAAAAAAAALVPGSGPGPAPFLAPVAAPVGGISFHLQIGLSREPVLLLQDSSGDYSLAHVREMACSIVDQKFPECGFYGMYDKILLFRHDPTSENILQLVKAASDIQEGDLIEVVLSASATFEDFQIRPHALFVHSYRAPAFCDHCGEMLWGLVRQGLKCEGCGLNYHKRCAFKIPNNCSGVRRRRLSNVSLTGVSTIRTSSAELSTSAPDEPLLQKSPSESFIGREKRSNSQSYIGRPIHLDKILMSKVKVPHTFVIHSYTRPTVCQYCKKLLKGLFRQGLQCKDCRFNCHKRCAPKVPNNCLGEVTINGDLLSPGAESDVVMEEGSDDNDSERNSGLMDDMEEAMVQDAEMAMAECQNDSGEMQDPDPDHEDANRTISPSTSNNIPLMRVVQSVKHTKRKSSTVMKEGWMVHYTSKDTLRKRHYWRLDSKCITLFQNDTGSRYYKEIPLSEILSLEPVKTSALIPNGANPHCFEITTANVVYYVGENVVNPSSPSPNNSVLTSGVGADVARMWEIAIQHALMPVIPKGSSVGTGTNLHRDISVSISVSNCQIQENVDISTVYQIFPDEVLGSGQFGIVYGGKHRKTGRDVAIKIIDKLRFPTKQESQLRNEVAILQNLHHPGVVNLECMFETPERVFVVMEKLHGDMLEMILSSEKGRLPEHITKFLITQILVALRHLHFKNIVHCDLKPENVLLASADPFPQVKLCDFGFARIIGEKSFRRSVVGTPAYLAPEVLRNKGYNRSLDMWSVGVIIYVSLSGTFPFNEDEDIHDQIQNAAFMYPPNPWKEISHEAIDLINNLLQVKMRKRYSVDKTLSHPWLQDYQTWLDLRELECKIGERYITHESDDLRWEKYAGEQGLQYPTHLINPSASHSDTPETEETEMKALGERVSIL
Insulin prom inh cell count = second read-out of Insulin prom inh, no call of its own (marks repeat the call); normalized cell count, %; measured here: cell count, toxicity; reference of the scale not given here;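 cells exposed to compound for 48 h; stained nuclei by imaging scaled within each plate; lower means fewer cells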
HSV augment primary fold = further read-out of HSV augment, marked with its call; fold increase; compound at 10 µM; measured here: primary screen fold increase 10 uM; tested in PC3 cells;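 GFP signal in the first replicate; 1 = infected wells without compound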
The depositor's hits bear a star.

Screening CCN(CC)S(=O)(=O)c1cc(NS(=O)(=O)c2cccc(Cl)c2Cl)ccc1C returned GALR2 ag -1.2, Insulin prom inh 3.3, HSV augment inactive, RGS16-Gao HTS 102.3, PKD1 inh -2.3, Insulin prom inh cell count 116.7 and HSV augment primary fold 0.93.
`Cc1ccc(C2C3=C(CC(C)(C)CC3=O)NC3=C2C(=O)c2ccccc23)cc1` (stereo unspecified) gave GALR2 ag 1.0, Insulin prom inh -316.7, HSV augment inactive, RGS16-Gao HTS 100.3, PKD1 inh 5.3, Insulin prom inh cell count 113.3 and HSV augment primary fold 0.76.
`COc1ccc(OC)c(CN(CCN2CCOCC2)C(=O)Nc2cccc(Cl)c2)c1` gave GALR2 ag 0.0, Insulin prom inh 11.4, HSV augment inactive, RGS16-Gao HTS 98.5, PKD1 inh 1.3, Insulin prom inh cell count 124.1 and HSV augment primary fold 0.88.
`Brc1cccc(-c2nnc(SCc3ccon3)n2-c2ccccc2)c1` gave GALR2 ag -1.4, HSV augment inactive, RGS16-Gao HTS 104.2, PKD1 inh 0.2 and HSV augment primary fold 1.04.
Screening C/C=C/c1ccc(OCCN2C(=O)NC(C)(C)C2=O)c(OC)c1 returned GALR2 ag -1.6, Insulin prom inh 43.8, HSV augment inactive, RGS16-Gao HTS 103.9, PKD1 inh -8.2, Insulin prom inh cell count 112.6 and HSV augment primary fold 0.92.
Screening CC(C)CNc1nc(Oc2ccc(=O)[nH]n2)nc(N(C)C)n1 returned GALR2 ag -1.4, Insulin prom inh 40.9, HSV augment inactive, RGS16-Gao HTS 104.7, PKD1 inh -2.5, Insulin prom inh cell count 83.3 and HSV augment primary fold 0.86.
For C/C(=N\N=C\c1ccc(N(C)C)cc1)c1cccc([N+](=O)[O-])c1 the results were GALR2 ag -2.8, Insulin prom inh 26.7, HSV augment inactive, RGS16-Gao HTS 99.5, PKD1 inh 3.9, Insulin prom inh cell count 99.5 and HSV augment primary fold 0.81.
Screening CC1CCCC(C)N1CC(O)COc1c(F)cc(Br)cc1F (stereo unspecified) returned HSV augment inactive, RGS16-Gao HTS 103.2, PKD1 inh -1.4 and HSV augment primary fold 0.85.
`CCOC(=O)c1nn(-c2ccc(OCC)cc2)c2nc(CC(C)C)c(C#N)c(=O)n12` gave GALR2 ag -1.7, Insulin prom inh -94.4, HSV augment inactive, RGS16-Gao HTS 55.2, PKD1 inh -7.7, Insulin prom inh cell count 87.6 and HSV augment primary fold 0.95.
Screening COc1ccc(C(=O)COC(=O)CCN2C(=O)C3C4CC(C(Br)C4Br)C3C2=O)cc1 (stereo unspecified) returned GALR2 ag 0.4, Insulin prom inh -2.3, HSV augment inactive, RGS16-Gao HTS 106.9, PKD1 inh -2.2, Insulin prom inh cell count 140.4 and HSV augment primary fold 0.78.
`Cn1c(Cn2c(=O)sc3ccccc32)nnc1SCc1cccnc1` gave GALR2 ag -0.7, HSV augment inactive, RGS16-Gao HTS 100.0, PKD1 inh -10.8 and HSV augment primary fold 0.89.
For C[C@H](NC(=O)OC(C)(C)C)c1nnc(SCC(=O)c2ccc(Cl)cc2)o1 the results were GALR2 ag -1.0, Insulin prom inh 13.3, HSV augment inactive, RGS16-Gao HTS 105.8, PKD1 inh -5.4, Insulin prom inh cell count 67.4 and HSV augment primary fold 0.88.
Screening O=C(Nc1nc(-c2cccnc2)cs1)c1ccccc1Cl returned Insulin prom inh 28.6, HSV augment inactive, RGS16-Gao HTS 99.3, PKD1 inh -5.4, Insulin prom inh cell count 100.0 and HSV augment primary fold 0.88.
For O=C(CSc1nnc(-c2ccc(Cl)cc2)n1-c1ccc(Cl)cc1)N/N=C/c1ccco1 the results were GALR2 ag -0.8, Insulin prom inh -67.7, HSV augment inactive, RGS16-Gao HTS 95.6, PKD1 inh 6.0, Insulin prom inh cell count 124.6 and HSV augment primary fold 0.99.
For Cc1sc(NC(=O)CSc2nnc(-c3ccc(F)cc3)o2)c(C#N)c1C the results were GALR2 ag 0.0, Insulin prom inh -9.1, HSV augment inactive, RGS16-Gao HTS 93.3, PKD1 inh -0.2, Insulin prom inh cell count 84.4 and HSV augment primary fold 0.93.
`O=C(Nc1ccc(Cl)c(S(=O)(=O)N2CCOCC2)c1)c1cn2ccccc2n1` gave Insulin prom inh -50.0, HSV augment inactive, RGS16-Gao HTS 99.7, PKD1 inh -5.0, Insulin prom inh cell count 78.3 and HSV augment primary fold 0.9.
For CCN(CC)c1ccc(NC(=O)c2ccc(Br)o2)cc1 the results were GALR2 ag -1.9, HSV augment inactive, RGS16-Gao HTS 77.7, PKD1 inh 1.4 and HSV augment primary fold 0.82.
For CC(C)c1ccc(NC(=O)c2cc(Br)ccc2Br)cc1 the results were HSV augment inactive, RGS16-Gao HTS 95.0, PKD1 inh 2.3 and HSV augment primary fold 0.85.
For O=C(Nc1nnc(-c2cccs2)o1)c1cccc(F)c1 the results were GALR2 ag -1.5, HSV augment inactive, PKD1 inh -0.3 and HSV augment primary fold 0.87.
Screening Cc1nc2ccc(S(=O)(=O)NCC(=O)N3CCCC(C)C3)cc2s1 (stereo unspecified) returned GALR2 ag 0.8, Insulin prom inh 72.7*, HSV augment inactive, RGS16-Gao HTS 97.3, PKD1 inh 1.3, Insulin prom inh cell count 95.6* and HSV augment primary fold 1.03.

Arranged by molar mass (smallest number first): 3 of the compounds above
For O=C(Nc1nnc(-c2cccs2)o1)c1cccc(F)c1 the results were GALR2 ag -1.5, HSV augment inactive, PKD1 inh -0.3 and HSV augment primary fold 0.87.
Screening O=C(Nc1nc(-c2cccnc2)cs1)c1ccccc1Cl returned Insulin prom inh 28.6, HSV augment inactive, RGS16-Gao HTS 99.3, PKD1 inh -5.4, Insulin prom inh cell count 100.0 and HSV augment primary fold 0.88.
`CCOC(=O)c1nn(-c2ccc(OCC)cc2)c2nc(CC(C)C)c(C#N)c(=O)n12` gave GALR2 ag -1.7, Insulin prom inh -94.4, HSV augment inactive, RGS16-Gao HTS 55.2, PKD1 inh -7.7, Insulin prom inh cell count 87.6 and HSV augment primary fold 0.95.

(listing goes on)
Cc1ccc2c(N)c(C(=O)N(c3ccccc3)c3ccccc3)sc2n1 was read as GALR2 ag 0.0, Insulin prom inh 62.5, HSV augment inactive, RGS16-Gao HTS 35.3, PKD1 inh -5.0, Insulin prom inh cell count 91.0 and HSV augment primary fold 0.83.
Screening CC(C)(C)C(=O)NC1(C(F)(F)F)NC(=O)N(c2ccccc2F)C1=O (stereo unspecified) returned HSV augment inactive, RGS16-Gao HTS 97.8 and HSV augment primary fold 0.96.
For Cc1ccc(O)c(NC(=O)CSc2n[nH]c(C)c2[N+](=O)[O-])c1 the results were HSV augment inactive, RGS16-Gao HTS 96.6, PKD1 inh -0.7 and HSV augment primary fold 0.85.
O=C(NN1C(=O)C2C3C=CC(O3)C2C1=O)c1ccncc1 (stereo unspecified) was read as GALR2 ag -0.9, Insulin prom inh 10.3, HSV augment inactive, RGS16-Gao HTS 101.0, PKD1 inh -9.5, Insulin prom inh cell count 87.9 and HSV augment primary fold 0.99.
For C/C(=N\NC(=O)c1ccc(NS(=O)(=O)c2cccs2)cc1)c1ccc2ccccc2c1 the results were GALR2 ag -1.1, Insulin prom inh -157.1, HSV augment inactive, RGS16-Gao HTS 89.3, PKD1 inh -2.4, Insulin prom inh cell count 72.7 and HSV augment primary fold 0.81.
For COc1cc2c(C(=O)NCc3ccccn3)cn(C)c(=O)c2cc1OC the results were GALR2 ag -1.1, Insulin prom inh -74.2, HSV augment inactive, RGS16-Gao HTS 106.6, PKD1 inh -11.3, Insulin prom inh cell count 51.1 and HSV augment primary fold 0.98.
For Cc1ccc(OCC(=O)Nc2ccc(S(=O)(=O)Nc3ccccn3)cc2)cc1 the results were HSV augment inactive, RGS16-Gao HTS 107.8, PKD1 inh -9.2 and HSV augment primary fold 0.81.
For Cc1cc(N2CCCCCC2)nc2ccccc12 the results were GALR2 ag -2.1, HSV augment inactive, RGS16-Gao HTS 103.8, PKD1 inh -7.7 and HSV augment primary fold 0.943.
CCOC(=O)C/C(N)=N/NC(=O)c1ccc(Cl)cc1Cl was read as Insulin prom inh -47.1, HSV augment inactive, RGS16-Gao HTS 100.5, PKD1 inh -7.8, Insulin prom inh cell count 66.3 and HSV augment primary fold 0.98.
For CC(C)(C)NC(=O)CSc1nncn1NCc1cccc2ccccc12 the results were GALR2 ag -0.9, Insulin prom inh -33.3, HSV augment inactive, RGS16-Gao HTS 102.1, PKD1 inh -1.2, Insulin prom inh cell count 131.3 and HSV augment primary fold 0.9.
Screening Cc1ccc(-n2c(N)c(C(=O)N3CCCCC3)sc2=S)cc1 returned GALR2 ag -0.5, Insulin prom inh 17.2, HSV augment inactive, RGS16-Gao HTS 93.7, PKD1 inh -5.9, Insulin prom inh cell count 232.0 and HSV augment primary fold 0.92.
CCOC(=O)N1CCC(N2C(=O)c3ccc(C(=O)NCc4ccc(F)cc4)cc3C2=O)CC1 was read as GALR2 ag 0.2, HSV augment inactive, RGS16-Gao HTS 102.0, PKD1 inh -3.7 and HSV augment primary fold 0.81.
O/N=C/c1cn(-c2ccccc2)nn1 was read as Insulin prom inh -11.1, HSV augment inactive, RGS16-Gao HTS 102.0, PKD1 inh 1.7, Insulin prom inh cell count 146.1 and HSV augment primary fold 0.95.
`CCN(Cc1cc2cc(C)ccc2[nH]c1=O)C(=O)c1cccc(OC)c1` gave GALR2 ag -3.4, RGS16-Gao HTS 95.7 and PKD1 inh -12.0.
Screening Cn1nnnc1SCC(=O)NCc1ccc2c(c1)OCO2 returned Insulin prom inh -33.3, HSV augment inactive, RGS16-Gao HTS 94.3, PKD1 inh 2.9, Insulin prom inh cell count 113.0 and HSV augment primary fold 0.97.
Screening CC1CCC2(CC1)NC(=O)N(CC(=O)NCc1ccc3c(c1)OCO3)C2=O (stereo unspecified) returned HSV augment inactive, RGS16-Gao HTS 105.9 and HSV augment primary fold 0.96.
Cc1cc(C(=O)O)n(C(C)(C)C)n1 was read as HSV augment inactive, RGS16-Gao HTS 97.2 and HSV augment primary fold 0.94.
Screening COc1ccc(CNC(=O)c2cnccn2)cc1 returned GALR2 ag 0.0, Insulin prom inh 0.0, HSV augment inactive, RGS16-Gao HTS 94.5, PKD1 inh -2.9, Insulin prom inh cell count 100.0 and HSV augment primary fold 0.87.
Screening CCOC(=O)c1ccc(NC(=O)CSc2nnc(C3CC3)n2CC)cc1 returned GALR2 ag -1.5, Insulin prom inh -113.8, HSV augment inactive, RGS16-Gao HTS 98.0, PKD1 inh 15.8, Insulin prom inh cell count 82.8 and HSV augment primary fold 1.04.
Screening O=C(Cn1ncc2c1-c1ccccc1OC2)Nc1cccc(Cl)c1 returned GALR2 ag -3.2, HSV augment inactive, RGS16-Gao HTS 100.1, PKD1 inh 0.1 and HSV augment primary fold 0.96.
For COc1ccc(C(C(=O)NCc2ccccc2)N(Cc2ccc3c(c2)OCO3)C(=O)c2cnccn2)cc1 (stereo unspecified) the results were GALR2 ag 0.4, HSV augment inactive, RGS16-Gao HTS 102.1, PKD1 inh -3.9 and HSV augment primary fold 0.82.
Screening O=C(Nc1cccc(C(F)(F)F)c1)c1cccnc1NCCc1ccccc1 returned GALR2 ag 1.0, HSV augment inactive, RGS16-Gao HTS 110.7, PKD1 inh 13.1 and HSV augment primary fold 1.3.
`Cc1nnc(NC(=O)C2CCN(c3nnnn3-c3ccccc3)CC2)s1` gave GALR2 ag -0.1, Insulin prom inh 40.0, HSV augment inactive, RGS16-Gao HTS 107.8, PKD1 inh -3.4, Insulin prom inh cell count 108.1 and HSV augment primary fold 0.93.
For CC(/C=C/c1ccccc1)=N/NC(=O)CCC(=O)Nc1ccccc1C the results were GALR2 ag -0.9, HSV augment inactive, RGS16-Gao HTS 102.0, PKD1 inh -6.7 and HSV augment primary fold 1.14.
`CC(=O)c1cnc(Nc2nc(C)c3cc(C)ccc3n2)nc1C` gave GALR2 ag -2.4, Insulin prom inh 3.2, PKD1 inh -5.9 and Insulin prom inh cell count 86.4.
`Cc1ccc(NC(=O)CN(C)CC(=O)Nc2ccc(F)c(Cl)c2)cc1` gave HSV augment inactive, RGS16-Gao HTS 98.4, PKD1 inh -2.3 and HSV augment primary fold 0.94.
CCCCN1C(=O)C(O)(CC(=O)c2c(C)n[nH]c2C)c2cc(Br)ccc21 (stereo unspecified) was read as GALR2 ag -2.0, Insulin prom inh -27.3, HSV augment inactive, RGS16-Gao HTS 96.3, PKD1 inh -2.4, Insulin prom inh cell count 118.2 and HSV augment primary fold 0.75.
C=CCn1c(=NC(=O)c2ccc(S(=O)(=O)N3CCCc4ccccc43)cc2)sc2cc(S(N)(=O)=O)ccc21 was read as GALR2 ag 0.5, Insulin prom inh -31.2, HSV augment inactive, RGS16-Gao HTS 93.2, PKD1 inh -3.8, Insulin prom inh cell count 89.5 and HSV augment primary fold 0.88.

Compounds as they come. About 1.3% of those tested had a hit in this group.
